# Source: PubChem BioAssay (National Center for Advancing Translational Sciences (NCATS))
# NPR1 antag – Natriuretic polypeptide receptor (hNpr1) antagonism - Primary qHTS | Potency, µM (titrated, usually from 46.3 µM), for inactives: at the highest dose activity change, negative = inhibition, usual class: inhibitors | actives 1.6% (n = 76,000) | HEK293 hNpr1 GloSensor cGMP, ANP-stimulated luminescence; active = well fitted inhibition curve with a large enough effect; inconclusive = small, poorly fitted or top-dose-only effect; inactive = no such curve, though single readings can be large or run the other way;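 also: nearly all actives have a fitted effect of over 60% in size; nearly all hits also lower the signal before the agonist is added; a reference antagonist and vehicle were the controls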
# Target sequence (P16066 whole entry, looked up): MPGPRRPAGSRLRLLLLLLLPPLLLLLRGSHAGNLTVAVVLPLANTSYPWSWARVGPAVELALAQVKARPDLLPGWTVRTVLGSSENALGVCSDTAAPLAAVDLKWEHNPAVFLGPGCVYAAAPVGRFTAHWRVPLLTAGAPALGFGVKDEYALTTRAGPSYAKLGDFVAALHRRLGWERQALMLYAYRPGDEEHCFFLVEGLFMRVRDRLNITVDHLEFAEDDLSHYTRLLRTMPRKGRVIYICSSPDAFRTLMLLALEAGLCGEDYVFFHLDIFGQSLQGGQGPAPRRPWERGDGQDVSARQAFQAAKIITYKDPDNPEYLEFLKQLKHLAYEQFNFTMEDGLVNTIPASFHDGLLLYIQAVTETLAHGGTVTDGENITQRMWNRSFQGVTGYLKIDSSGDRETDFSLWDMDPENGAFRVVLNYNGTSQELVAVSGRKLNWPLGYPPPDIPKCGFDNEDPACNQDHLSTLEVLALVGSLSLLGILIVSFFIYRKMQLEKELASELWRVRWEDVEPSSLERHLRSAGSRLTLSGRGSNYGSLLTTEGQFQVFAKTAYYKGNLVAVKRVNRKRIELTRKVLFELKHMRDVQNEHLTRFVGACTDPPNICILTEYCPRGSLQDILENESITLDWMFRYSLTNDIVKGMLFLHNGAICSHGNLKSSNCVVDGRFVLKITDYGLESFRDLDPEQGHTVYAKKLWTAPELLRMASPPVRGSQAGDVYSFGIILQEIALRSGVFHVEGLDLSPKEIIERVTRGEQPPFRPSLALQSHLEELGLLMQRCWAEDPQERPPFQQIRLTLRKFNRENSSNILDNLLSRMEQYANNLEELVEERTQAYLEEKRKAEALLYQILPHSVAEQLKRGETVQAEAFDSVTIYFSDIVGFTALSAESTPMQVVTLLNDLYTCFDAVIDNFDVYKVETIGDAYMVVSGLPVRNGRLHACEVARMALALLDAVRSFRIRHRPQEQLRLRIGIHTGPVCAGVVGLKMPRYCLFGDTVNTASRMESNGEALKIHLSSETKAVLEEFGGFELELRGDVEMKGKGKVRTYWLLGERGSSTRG
#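 Compound pre-incubated 30 min at room temperature on GloSensor-loaded HEK293 cells stably carrying hNpr1 and the pGS-40F cGMP biosensor. Stimulation uses hNppA at 0.1 nM final; luminescence is taken at baseline and 20 min post-agonist.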
# * marks the source's active call; other numbers are inactive results; ? = inconclusive; [ ] = another dose, or the depositor's remark. % is scaled to controls: 0 for no effect and ±100 for the full control effect; potency is read from the fitted curve at half-maximal effect. Some of the compounds tested (hit frequency here may not be typical).
SMILES,NPR1 antag
CCn1c(C2CCCN(C(=O)NCc3ccc(OC)cc3)C2)nn(C)c1=O (stereo unspecified),3%
O=C1CC(c2ccccc2)N(C(=O)COc2ccc(F)cc2)CCCCCCN1 (stereo unspecified),-2%
COc1ccc(CCC(=O)N2CCCN(C)c3ccccc32)cc1,-17%
Cn1ncc(N2CCC(NC(=O)CC3CCCC3)CC2)cc1=O,1%
Cc1ccc(S(=O)(=O)N[C@H]2CO[C@H]3[C@@H]2OC[C@@H]3n2nnnc2Oc2ccc(-n3cncn3)cc2)cc1,0%
O=C(c1cnccn1)N1C[C@@H]2OCC(=O)N(c3ccccc3)[C@@H]2C1,1%[70.6 µM]
Cc1ccc(-c2nc(C3CC(=O)N(c4ccc(F)cc4)C3)no2)cc1C (stereo unspecified),-5%
O=C(NCc1c[nH]c2ncccc12)c1ccncc1,-15%[70.6 µM]
COc1ccc(Cn2c(C3CCN(C(=O)Cc4ccsc4)CC3)n[nH]c2=O)cc1,0%
COc1ccc(NC(=O)[C@@H]2C[C@H](c3cccc(C(F)(F)F)c3)N(Cc3cnn(C)c3)C2)cc1,-3%
CC(c1cccs1)N(C)Cc1cccn1C (stereo unspecified),-13%[70.6 µM]
CCOc1ccc(NC(=O)C2CC(=O)N(c3n[nH]c4cc(Br)ccc34)C2)cc1 (stereo unspecified),1%
CCOc1ccc(C2NC(=O)N(CC3CC3)C3=C2C(=O)OC3)cc1 (stereo unspecified),-3%
COc1cc(Nc2nc(-c3ccccc3)no2)cc(OC)c1OC,-25%
O=C(NC1CCCN(c2cc(-c3ccc(F)cc3)[nH]n2)C1)c1ccc2nc[nH]c2c1 (stereo unspecified),-23%
CN1CCCC1c1nc(C2CN(C(=O)CCCc3nc4ccccc4[nH]3)C2)no1 (stereo unspecified),5%
O=C(c1ccc(Cl)nc1)N1CCn2c(nnc2-c2ccccc2)C1,10%[70.6 µM]
CC(C)c1noc(C2Cc3ccccc3N2C(=O)NC2CCCC2)n1 (stereo unspecified),8%
O=C(Cn1ccn2nc3c(c2c1=O)CCCCC3)NCc1ccc(Cl)cc1,1%
CCc1ccc(CN2CCC(CNC(=O)c3occc3C)CC2)nc1,5%
Cc1noc(-c2ccn3c(CNC(=O)Cc4ccc(OC(F)(F)F)cc4)nnc3c2)n1,0%
COc1cc2c(cc1OC)CN(c1cc(C3CC(O)C3)ncn1)CC2 (stereo unspecified),?
CC(C)CN1C(=O)c2cccn2CC1C(=O)NC1CCCCCC1 (stereo unspecified),-3%
CN(C)[C@@H]1CN(C(=O)c2cccc(C(F)(F)F)c2)C[C@H]1CO,12%
Cc1ccc(-n2nc3n(c2=O)CCN(C(=O)C2CC2)C3)cc1,4%[70.6 µM]
SMILES,NPR1 antag
CCN(CC)C(=O)CCc1c(C)nn(-c2ccc(F)cc2)c1Oc1cccc(F)c1,-22%
O=C(c1ccccc1)N1CCc2nc(C3CC3)nc(-c3ccc(Cl)cc3)c2CC1,-5%
O=C(NCCCN1CCCC1=O)c1ccc(-c2ccc(N3CCSCC3)nc2)cc1,?
COc1cccc(S(=O)(=O)N2CCCC(CO)CCNC(=O)CC2)c1 (stereo unspecified),6%
CC(C)Nc1ncc(C(=O)NC2CCCN(CCc3ccccc3)C2)cn1 (stereo unspecified),-3%
CC(C)NC(=O)c1nc(-c2cccc(C(F)(F)F)c2)c2ccccn12,13%
O=C(CC1CCN(S(=O)(=O)c2ccc(F)cc2F)C1)NCc1ccccc1 (stereo unspecified),14%
O=C(Nc1ccc(F)cc1)N[C@H]1[C@H](O)[C@@H](N2CCC(Cc3ccccc3)CC2)[C@@H]2OC[C@H]1O2,-8%
CNC(=O)[C@@H]1CN(C(=O)c2ncoc2-c2cccc(C)c2)C[C@H]1CO,7%
CN1c2cc(C(=O)NCc3ccccc3)ccc2C(=O)N2CCCCCC21 (stereo unspecified),-7%
COc1ccc(C)cc1NC(=O)CC1CCCN(c2cn[nH]c(=O)c2)C1 (stereo unspecified),9%
O=C(Cn1c(=O)oc2ccccc21)NCC1Cn2cccc2C(=O)N1Cc1ccccc1 (stereo unspecified),?
CNC(=O)[C@H]1C[C@H](Oc2ccccc2)CN1C(=O)Nc1ccccc1,5%
Cn1cc(C(=O)N2CCOc3c(O)cc(-c4csc5ccccc45)cc3C2)cn1,-17%
CC(=O)N1CC(CO)C2(CCN(C(=O)c3cc(C)n(C)n3)CC2)C1 (stereo unspecified),2%
CCCn1nc(C)c(-c2cc(C(=O)N3CCc4nc5cc(-c6ccccc6)[nH]n5c(=O)c4C3)[nH]n2)c1C,-10%
COc1ccccc1-c1[nH]ncc1CN1CCC2(CC1)CC(O)CCO2 (stereo unspecified),1%
COc1cccc(NC(=O)c2cnc3n2CCN(Cc2ccccc2)CC3)c1,-2%[70.6 µM]
O=C(Nc1ccc(-c2nnc3n2CCCC3)cc1)Nc1ccccc1Br,0%
COCCN1CCN(C[C@@H]2C=C(C)[C@H](Cc3nnc(-c4ccc(OC)cc4)o3)C[C@H]2C(C)C)CC1,0%
O=C(O)C[C@@H]1CCN(C(=O)COc2ccccc2)C[C@@H]1CCN1CCN(c2ccc(F)cc2)CC1,5%
O=C1CC(c2noc(Cc3c(F)cccc3Cl)n2)CN1C1CCCCC1 (stereo unspecified),-3%
CC(C)N1CCN(C(=O)CC2Sc3ncccc3N(C)C2=O)CC1 (stereo unspecified),-5%
CCN(C(=O)C1CCC(=O)N(CCc2ccc(Cl)cc2)C1)C(C)C (stereo unspecified),2%
O=C(CCCOc1ccccc1)N1CCCC2(CCC(=O)N(CC3CC3)C2)C1 (stereo unspecified),3%
SMILES,NPR1 antag
O=C(Cn1nc2c(cc1=O)CCCCC2)N1CCSCC1,-2%
COc1ccc(-c2cc(N3CCCC(NC(=O)c4ccc(Br)o4)C3)n[nH]2)cc1 (stereo unspecified),-21%
COCCN1CCC2(C1)CN(C)c1ccc(C(=O)Nc3ccccc3)cc12 (stereo unspecified),6.3µM*
O=C1Nc2ccccc2CC12CCN2Cc1ccccc1C(F)(F)F (stereo unspecified),-8%[70.6 µM]
CC1(C)[C@H](Cc2cc(COc3ccccc3)on2)C[C@@H]1NC(=O)Cc1ccccc1,?
Cc1noc(C)c1S(=O)(=O)NCC(=O)N1CCCCCNC(=O)CC1c1ccccc1 (stereo unspecified),1%
C1=C(c2nc(-c3ccc(N4CCOCC4)cc3)cc3c2ccn3Cc2cccnc2)CCOC1,-2%
CCN(Cc1noc(C2CCC2)n1)C(=O)c1cc(C(C)C)n2ncnc2n1,6%
Cc1noc([C@@H]2CC(F)(F)CN2C(=O)c2cc(C)[nH]n2)n1,0%
COc1ccc(C[C@H](NC(=O)C2=C[C@@H](NC(=O)c3ccccc3Br)[C@@H](O)[C@H](O)C2)C(N)=O)cc1,11%
Cc1cccc(NC(=O)Cn2ccn3nc(-c4ccccc4)c(CO)c3c2=O)c1C,0%
N#Cc1ccc(CN2CCC[C@H]2c2nc(-c3ccc(F)cn3)no2)cc1,0%[70.6 µM]
CC(=O)N1CCC(N[C@H]2C[C@@H](Cc3cc(CCO)on3)C2(C)C)CC1,-6%[70.6 µM]
CC(c1ccc(-c2ccc(=O)n(C)n2)cc1)N1CCCCC1 (stereo unspecified),2%
O=C(O)CC1CCOCC1,3%
CCc1ccc(CNC(=O)c2ccc3c(c2)N(CC)C2CCCCN2C3=O)cc1 (stereo unspecified),0%
COc1ccc(-c2nc(N3CCOCC3)cc3c2CN(Cc2cnn(C)c2)C3=O)cc1OC,1%
N[S+](=O)([O-])c1ccc(C(=O)N2CC(c3ncc4c(-c5ccccc5)nccn34)C2)cc1,3%[70.6 µM]
CCn1ncc(C(=O)N2C[C@@H](CO)[C@H](c3nc(C4CC4)no3)C2)c1C,0%
O[C@@H]1CC(CNCC2CCCC2)(COc2cccnc2)C[C@@H]1O (stereo partly specified),-11%[70.6 µM]
Cc1ccc(-c2cc(N3CCC(CNC(=O)c4ccc(N(C)C)cc4)CC3)n[nH]2)cc1,-3%
Cc1ccc(-c2ncc(C(=O)NCc3ccccc3Cl)c(-c3ccncc3)n2)cc1,-4%

# Arranged by molar mass (descending): part of the list above.
SMILES,NPR1 antag
COc1ccc(C[C@H](NC(=O)C2=C[C@@H](NC(=O)c3ccccc3Br)[C@@H](O)[C@H](O)C2)C(N)=O)cc1,11%
O=C(O)C[C@@H]1CCN(C(=O)COc2ccccc2)C[C@@H]1CCN1CCN(c2ccc(F)cc2)CC1,5%
COCCN1CCN(C[C@@H]2C=C(C)[C@H](Cc3nnc(-c4ccc(OC)cc4)o3)C[C@H]2C(C)C)CC1,0%
C1=C(c2nc(-c3ccc(N4CCOCC4)cc3)cc3c2ccn3Cc2cccnc2)CCOC1,-2%
COc1ccc(-c2nc(N3CCOCC3)cc3c2CN(Cc2cnn(C)c2)C3=O)cc1OC,1%
Cc1noc(C)c1S(=O)(=O)NCC(=O)N1CCCCCNC(=O)CC1c1ccccc1 (stereo unspecified),1%
COc1ccc(-c2cc(N3CCCC(NC(=O)c4ccc(Br)o4)C3)n[nH]2)cc1 (stereo unspecified),-21%
N[S+](=O)([O-])c1ccc(C(=O)N2CC(c3ncc4c(-c5ccccc5)nccn34)C2)cc1,3%[70.6 µM]
Cc1ccc(-c2cc(N3CCC(CNC(=O)c4ccc(N(C)C)cc4)CC3)n[nH]2)cc1,-3%
Cc1ccc(-c2ncc(C(=O)NCc3ccccc3Cl)c(-c3ccncc3)n2)cc1,-4%
O=C(Nc1ccc(-c2nnc3n2CCCC3)cc1)Nc1ccccc1Br,0%
CC1(C)[C@H](Cc2cc(COc3ccccc3)on2)C[C@@H]1NC(=O)Cc1ccccc1,?
Cc1cccc(NC(=O)Cn2ccn3nc(-c4ccccc4)c(CO)c3c2=O)c1C,0%
CCc1ccc(CNC(=O)c2ccc3c(c2)N(CC)C2CCCCN2C3=O)cc1 (stereo unspecified),0%
O=C1CC(c2noc(Cc3c(F)cccc3Cl)n2)CN1C1CCCCC1 (stereo unspecified),-3%
COc1cccc(NC(=O)c2cnc3n2CCN(Cc2ccccc2)CC3)c1,-2%[70.6 µM]
CCN(Cc1noc(C2CCC2)n1)C(=O)c1cc(C(C)C)n2ncnc2n1,6%
COCCN1CCC2(C1)CN(C)c1ccc(C(=O)Nc3ccccc3)cc12 (stereo unspecified),6.3µM*
CCN(C(=O)C1CCC(=O)N(CCc2ccc(Cl)cc2)C1)C(C)C (stereo unspecified),2%
N#Cc1ccc(CN2CCC[C@H]2c2nc(-c3ccc(F)cn3)no2)cc1,0%[70.6 µM]
CC(C)N1CCN(C(=O)CC2Sc3ncccc3N(C)C2=O)CC1 (stereo unspecified),-5%
O=C1Nc2ccccc2CC12CCN2Cc1ccccc1C(F)(F)F (stereo unspecified),-8%[70.6 µM]
CCn1ncc(C(=O)N2C[C@@H](CO)[C@H](c3nc(C4CC4)no3)C2)c1C,0%
O[C@@H]1CC(CNCC2CCCC2)(COc2cccnc2)C[C@@H]1O (stereo partly specified),-11%[70.6 µM]
O=C(Cn1nc2c(cc1=O)CCCCC2)N1CCSCC1,-2%
CC(c1ccc(-c2ccc(=O)n(C)n2)cc1)N1CCCCC1 (stereo unspecified),2%
O=C(O)CC1CCOCC1,3%
